NPYLR7 agonist = mosquito NPYLR7 agonism; HEK293T NPYLR7/Galpha15, GCaMP6s calcium fluorescence; activation, % at 10 µM; actives 0.15% (n = 270,000); AID 1259423; in the data active = activation above about 40%;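 note: 0% = vehicle and 100% = reference agonist at the receptor; some compounds past the cut are filed as inactive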
NPYLR7 agonist max-min = further read-out of NPYLR7 agonist, marked with its call; activation, %; measured here: Max-Min RFU normalised activation; some inactives read as strong as hits;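 span of the calcium signal over five minutes; 0% = vehicle and 100% = native peptide agonist; compound fluorescence can raise it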
Numbers without * were called inactive.

Fields: NPYLR7 agonist, NPYLR7 agonist max-min
- O=S(=O)(CC(O)CO)C1Cc2ccccc2C1 (stereo not drawn)
    -1.4, 6.2
- Cc1ccc(-n2nc(C(C)(C)C)cc2NC(=O)CN(Cc2ccco2)C(=O)c2ccc(C)c([N+](=O)[O-])c2)c(C)c1
    1.0, 12.5
- COc1ccc(S(=O)(=O)Oc2cc(CN(C(=O)C3CCC3)C3CC3)ccc2OC)cc1
    14.7, 16.1
- O=C(NC1CCN(C(=O)c2ccco2)CC1)c1ccccc1C(=O)c1ccc(Cl)cc1
    7.9, 13.2
- COC(=O)c1ccc(C)c(-n2c(N)c(C(=O)NCc3ccccc3OC)sc2=S)c1
    16.7, 8.0
- CCOc1cc(C(=O)N2CCN(c3nc(C)cs3)CC2)ccc1OCC(C)C
    4.1, 3.6
- CC(C)c1cc(N2CCCC2)n2c(nc3ccccc32)c1C#N
    1.2, 3.5
- CCCn1c(=O)c(C(=O)N2CCCC(C(=O)OCC)C2)nn(-c2cccc(C)c2)c1=O (stereo not drawn)
    16.6, 13.5
- Cc1oc(-c2cc3c(cc2Cl)OCO3)nc1CN1CCNC(=O)C1c1ccc(F)cc1 (stereo not drawn)
    27.4, 15.6
- CCOc1ccc(-n2c(C(CC)N(CCc3ccccc3)C(=O)Nc3ccc(OC)cc3OC)nc3ccccc3c2=O)cc1 (stereo not drawn)
    13.7, 7.6
- CCc1nc2c(OCc3ccc(F)c(F)c3)cccn2c1N(C)C(C)=O
    6.6, -1.6
- CC1=C(CCN2CCC3(CC2)C(=O)N(C)C(=O)N3Cc2ccccc2)C(C)(C)CCC1
    11.5, 3.5
- Cc1ccccc1N1CCN(c2cc(Cl)nc(SCC(=O)N3CCN(c4cccc(C(F)(F)F)c4)CC3)n2)CC1
    -3.5, 5.3
- COc1ccc(OC)c(-c2cc(C(N)=O)ccc2C)c1
    11.4, 7.9
- CCc1ccc2oc(Br)c(CC(=O)N(C)C)c2c1
    -3.3, -2.3
- CCCCN(C(=O)NCC)c1c(N)n(CCCC)c(=O)[nH]c1=O
    0.7, 7.2
- Cc1c(Cl)cccc1NC(=O)c1cnn2c(C(F)(F)F)cc(-c3cccs3)nc12
    -1.3, 6.0
- CC(C)=CC(=O)N1CCC(Cc2ccc(-c3ccccc3)cc2)CC1
    -0.9, -3.4
- COc1ccc(-c2noc(-c3cc(-c4ccccc4)n[nH]3)n2)cc1
    -2.3, -9.0
- Cc1ccc(S(=O)(=O)NCc2ccccc2)cc1C(=O)N1CC(C)OC(C)C1 (stereo not drawn)
    6.6, 3.0
- CCOc1ccc(C(=O)Nc2cc(C)nn2-c2nc(C)cc(=O)[nH]2)cc1
    8.3, 2.9
- Cc1ccc(-n2cc(CN3CCC(C(N)=O)CC3)c(-c3ccc(F)cc3)n2)cc1
    1.1, -1.8
- O=C(/C=C/c1cccs1)N1CCN(C(=O)c2cccnc2N2CCOCC2)CC1
    -1.2, -3.5
- N#Cc1cc2c(nc1SCC(=O)OCc1ccccc1)CCC2
    5.0, 0.5
- Cc1nccn1CCNC(=O)C(=O)Nc1ccc(Cl)cn1
    -2.2, -3.5
- CCOc1ccc(CN(C)CCc2nc3ccccc3c(=O)[nH]2)cc1
    -0.9, -1.3
- CC(C)(C)c1ccc(Cn2c3ccc(F)cc3c3nc4ccccc4nc32)cc1
    -5.3, -10.7
- CC1ON=C(c2ccco2)NC1=O (stereo not drawn)
    8.9, 3.3
- Cc1cccc(CO[C@]2(C(=O)NCC3CC3)CC(OCc3cccc(Cl)c3)[C@@H]3OC(C)(C)O[C@@H]3C2)c1 (stereo partly drawn)
    25.8, 18.5
- COc1ccc(Cl)cc1NC(=O)CN1C(=O)NC(C)(c2ccco2)C1=O (stereo not drawn)
    -1.0, -2.4
- COc1ccc(OC)c(CN(CC(=O)N2CCOC3CCCCC32)C2CC2)c1 (stereo not drawn)
    3.7, 4.8
- COc1ccc(Br)cc1/C=C/C(=O)N1CCC(c2ccc(F)cc2)CC1
    -6.9, -9.5
- Cn1nc(C(=O)NNC(=O)C2CCCC2)c2ccccc2c1=O
    10.1, 8.7
- CCOC(=O)CN(Cc1ccccc1)[C@H]1[C@H](O)[C@@H]2O[C@H]1c1ccccc12
    2.3, 4.6
- Cc1cccc(CSCC(=O)N2CCN(S(=O)(=O)c3ccccc3F)CC2)c1
    3.4, 4.2
- Cc1ccc(C(=O)N(C)C2CCCCCCC2)cc1NS(C)(=O)=O
    3.0, 2.1
- CC1(c2ccc(Cl)s2)NC(=O)N(CC(=O)O)C1=O (stereo not drawn)
    0.7, 1.1
- Cc1cn(C(=O)c2ccccc2)c2c(c1=O)c(=O)n(C)c(=O)n2C
    -3.3, -1.0
- Cc1ccc(-c2csc(NC(=O)CCNC(=O)c3ccco3)n2)c(C)c1
    16.4, 7.2
- Cc1ccc(CN(C)Cc2ccc(-n3ccnc3)cc2)o1
    -0.9, -9.2
- Cc1ccc(C(=O)OCC(=O)NC2(C)CCS(=O)(=O)C2)cc1C (stereo not drawn)
    -1.9, -3.1
- O=C(CCN1CCOC1=O)Nc1ccnn1-c1cccc(Cl)c1
    7.3, 3.5
- CCN1CCN(c2cc(Cl)nc(SCc3ccc(C(=O)NC4CCN(Cc5ccccc5)CC4)cc3)n2)CC1
    -7.0, 4.3
- CC(C)CN1CCC(Nc2ccc3nnc(C(F)(F)F)n3n2)CC1
    11.1, 7.5
- CCOc1ncccc1C(=O)OCc1cc(-c2ccc3c(c2)OCCO3)on1
    -3.8, -5.4

Part of the list above in order of length of the SMILES, largest number first:
Fields: NPYLR7 agonist, NPYLR7 agonist max-min
- Cc1cccc(CO[C@]2(C(=O)NCC3CC3)CC(OCc3cccc(Cl)c3)[C@@H]3OC(C)(C)O[C@@H]3C2)c1 (stereo partly drawn)
    25.8, 18.5
- CCN1CCN(c2cc(Cl)nc(SCc3ccc(C(=O)NC4CCN(Cc5ccccc5)CC4)cc3)n2)CC1
    -7.0, 4.3
- CCOC(=O)CN(Cc1ccccc1)[C@H]1[C@H](O)[C@@H]2O[C@H]1c1ccccc12
    2.3, 4.6
- Cc1ccc(-n2cc(CN3CCC(C(N)=O)CC3)c(-c3ccc(F)cc3)n2)cc1
    1.1, -1.8
- CCOc1ccc(C(=O)Nc2cc(C)nn2-c2nc(C)cc(=O)[nH]2)cc1
    8.3, 2.9
- Cc1cccc(CSCC(=O)N2CCN(S(=O)(=O)c3ccccc3F)CC2)c1
    3.4, 4.2
- COc1ccc(Cl)cc1NC(=O)CN1C(=O)NC(C)(c2ccco2)C1=O (stereo not drawn)
    -1.0, -2.4
- Cc1ccc(-c2csc(NC(=O)CCNC(=O)c3ccco3)n2)c(C)c1
    16.4, 7.2
- CCOc1ncccc1C(=O)OCc1cc(-c2ccc3c(c2)OCCO3)on1
    -3.8, -5.4
- Cc1ccc(C(=O)OCC(=O)NC2(C)CCS(=O)(=O)C2)cc1C (stereo not drawn)
    -1.9, -3.1
- Cc1ccc(C(=O)N(C)C2CCCCCCC2)cc1NS(C)(=O)=O
    3.0, 2.1
- CC(C)CN1CCC(Nc2ccc3nnc(C(F)(F)F)n3n2)CC1
    11.1, 7.5
- Cn1nc(C(=O)NNC(=O)C2CCCC2)c2ccccc2c1=O
    10.1, 8.7
- O=C(CCN1CCOC1=O)Nc1ccnn1-c1cccc(Cl)c1
    7.3, 3.5
- CC1(c2ccc(Cl)s2)NC(=O)N(CC(=O)O)C1=O (stereo not drawn)
    0.7, 1.1
- N#Cc1cc2c(nc1SCC(=O)OCc1ccccc1)CCC2
    5.0, 0.5
- Cc1ccc(CN(C)Cc2ccc(-n3ccnc3)cc2)o1
    -0.9, -9.2
- CC1ON=C(c2ccco2)NC1=O (stereo not drawn)
    8.9, 3.3

(further entries)
Fields: NPYLR7 agonist, NPYLR7 agonist max-min
- CC1=C(C(=O)OC(C)C)C(c2ccccc2)C2=C(CC(c3ccccc3)CC2=O)N1 (stereo not drawn)
    4.0, -0.3
- CN(C)c1c(F)cc(NC(=O)c2ccccc2S(=O)(=O)C(F)(F)F)cc1F
    -4.3, -6.0
- CSc1ccccc1NC(=O)NCc1cccnc1N1CCN(C(C)=O)CC1
    2.1, 1.4
- CCOC(=O)c1cc(-c2ccccc2)sc1NC(=O)CCCl
    0.1, -4.7
- N#Cc1nncn1Cc1csc(-c2cccs2)n1
    1.1, -4.4
- CC1CCCC(c2ccccc2)N1C(=O)Cc1ccccc1F (stereo not drawn)
    0.9, 9.7
- CCCCN(C)C1CCc2ccc(F)cc21 (stereo not drawn)
    8.4, 0.7
- COc1ccccc1N1CC(O)(c2cccs2)[N+]2=C1CCCCC2 (stereo not drawn)
    -1.9, -2.2
- CC(N)=C(C#N)C(=O)COC(=O)C=Cc1ccc(C)o1
    -3.1, -3.1
- CCOC(=O)c1nn(-c2ccc(C)cc2)c(=O)cc1N1CCC(C)CC1
    13.9, 10.2
- N#Cc1ccccc1Cn1cc(C(=O)NCc2ccccc2)sc1=O
    7.4, -0.6
- Cc1ccc2nc(NC(=O)CSc3nnc4ccc(-c5ccccc5)nn34)sc2c1
    -10.4, -2.6
- O=C(NCC1COC2(CCCCC2)O1)C(=O)Nc1cc2c3c(c1)CC(=O)N3CCC2 (stereo not drawn)
    -3.0, -4.8
- O=C(COc1cccnc1)N1CCn2nc(C(=O)N3CCCC3)cc2C1
    11.6, -1.5
- COCCN(Cc1c(-c2ccccc2)noc1N1CCCCC1)C(=O)Nc1ccc(C)cc1
    -6.6, -6.4
- CCOC(=O)CC(=O)c1cc(C(C)=O)c(Nc2ccccc2)s1
    -5.4, -10.5
- O=C(/C=C/c1ccc(OC(F)(F)F)cc1)N1CCN(Cc2cc(=O)c(OCc3ccccc3Cl)co2)CC1
    25.0, 17.4
- Cc1noc(C)c1COC(=O)CCNC(=O)OC(C)(C)C
    6.8, 0.3
- CN(C)[C@@H]1C[C@@H](CO)N(Cc2cc(C#CCO)cs2)C1
    2.9, 1.2
- CCN(C(=O)Cn1nc(C)c(S(=O)(=O)N(C)C)c1C)C1=CCCCC1
    1.2, -1.4
- COc1cc(-c2nc(CN3CCN(c4cc(C)cc(C)c4)C(=O)C3)c(C)o2)cc2c1OCO2
    -3.9, -8.7
- CC(C)N1CCC(N2CCN(Cc3cccc(Oc4ccccc4)c3)CC2CCO)CC1 (stereo not drawn)
    6.4, 2.5
- CO[C@@]12[C@@H]3NC3CN1C1=C(C(=O)C(N)=C(C)C1=O)[C@@H]2COC(N)=O (stereo partly drawn)
    5.4, -8.9
- CC(=O)NC1C(Oc2ccc(C)cc2)OC(COC(C)=O)C(OC(C)=O)C1OC(C)=O (stereo not drawn)
    3.2, -1.8
- [O-][n+]1onc2c(-c3ccccc3)nnc(-c3ccccc3)c21
    0.9, 1.1
- CC(C)CCCC(=O)Nc1ccc2nc([C@@H]3O[C@H](CO)[C@@H](O)[C@H](O)[C@H]3O)[nH]c2c1
    5.4, 6.6
- N#CC1C(=N)OC2=C(C(=O)CCC2)C12C(=O)Nc1ccccc12 (stereo not drawn)
    2.3, 2.5
- N#Cc1c(N)c(C(=O)c2cccc(Br)c2)n2ccccc12
    -0.6, 18.1
- Cc1ccc(C)c(Cn2c(=O)c3c(nc4n3CCCN4C3CCCCC3)n(C)c2=O)c1
    0.3, 5.4
- O=C(CCN1CCCC1c1ccccn1)Nc1nc2ccccc2s1 (stereo not drawn)
    4.6, -4.2
- COc1ccc(-c2cnc(C)[nH]2)c(C)c1
    -1.7, -1.8
- COc1ccc(Cc2ncc3c(n2)CN(C(=O)[C@@H](O)c2ccccc2)C3)cc1
    -2.9, -3.2
- Cc1cc(CS(=O)(=O)Cc2csc(-c3ccc(F)cc3)n2)on1
    5.8, 4.0
- COc1ccc(CNC(=O)CCC2CCCN(C(=O)C3=CCCCC3)C2)c(OC)c1 (stereo not drawn)
    2.1, -1.0
- Cc1ccc(N=C2SC(C(=O)Nc3ccccc3F)CC(=O)N2C)cc1Cl (stereo not drawn)
    1.5, 3.0
- C=CCN(CC(=O)N(Cc1cccn1C)C1CC1)C(=O)Nc1ccc(OC)cc1OC
    17.4, 21.5
- Cc1cc(C(=O)N(CCCN2CCOCC2)c2nc3ccc(Cl)cc3s2)no1
    5.3, 2.7
- CCc1cccc(NC(=O)CSc2ncc(S(=O)(=O)c3ccc(C(C)(C)C)cc3)c(=O)[nH]2)c1
    -2.4, -9.0
- COc1ncc(CN2CCOC(Cc3cccc4ccccc34)C2)cn1 (stereo not drawn)
    6.5, 4.8
- COc1cccc(N=c2scc(-c3ccccc3)n2CCCN2CCCCC2C)c1 (stereo not drawn)
    -11.0, -16.6
- N#Cc1c2n(c(=O)n(Cc3cc4c(cc3Br)OCO4)c1=O)CCC2
    7.1, 1.3
- Cc1ncc(CN2C[C@@H]3CN(C(=O)C4CC4)C[C@]3(C(=O)O)C2)[nH]1
    17.7, 11.4
- c1ccc(-c2nc(CSc3nnc(-c4ccc5c(c4)OCO5)o3)cs2)cc1
    -0.2, 2.6

This is a subset; the hit share may differ from the screen's.
